Source: PubChem BioAssay (National Center for Advancing Translational Sciences (NCATS))
PINK1 modulator – modulators of PINK1 expression | Potency, µM (doses to about 76.6 µM), without a hit: at the top dose activation (PINK1 increase), actives largely listed as activators | AID 624263 | PINK1 immunofluorescence, high-content cytometry, 24 h | hit rate 0.2% among 410,000; active = well fitted activation curve with a large enough effect; inconclusive = small, poorly fitted or top-dose-only effect; inactive = flat fitted curve, though single readings scatter; cell line not stated here;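 note: potency is the fitted concentration of half-maximal effect; % of control where 0% means no effect; nearly all actives have a fitted effect of over 65% in size; a mitochondrial uncoupler was the plate control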
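Compound titrations (5 concentrations, 24 h) on a stable cell line; DMSO and CCCP controls. Endpoint: fixed-cell PINK1 immunofluorescence with mitochondrial, cell and nuclear markers, scanned by microplate cytometer.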
Menin MLL FP FL – menin-MLL binding inhibition, fluorescein peptide; FP activity change, % at 61.4 µM; 290,000 tested, under 10 active; AID 1766; Fluorescence polarization, fluorescein-MLL peptide displacement from menin; inconclusive = falling polarisation curve, or a change in total fluorescence; inactive = total fluorescence flat and polarisation flat or rising; no compound was filed as active; the % refers to the polarisation; negative = inhibition;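 note: % of control where 0% means no effect; inhibitors lower the polarisation; unlabelled MLL peptide was the positive control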
TRPML1 ag – activates the human TRPML1 channel | Q9GZU1 | TRPML1-expressing cells, Ca2+ dye fluorescence, FDSS; host cell line not named in the record; reference of the full effect not given here | activation, % (concentration not given with the values) | hit rate 0.12% among 410,000; in the data active = activation above about 50%; inconclusive = about 30% to 50%; inactive = below about 30%; note: 0% is about no effect; the text of the record puts the active cut at 80%
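Tetracycline-induced TRPML1-DL cells are seeded and incubated overnight before loading with a no-wash Ca2+ dye and quencher. Agonist activity is taken from the 110 s fluorescence read following compound pin-transfer on an FDSS, before EC80 54-4 challenge.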
TRPML1 inh – blocks the human TRPML1 channel; Q9GZU1; activity change, negative = inhibition, % (no concentration beside the values); hit rate 0.02% among 390,000; TRPML1-inducible cells, Ca2+ dye fluorescence, FDSS; hits give low values; inhibition of EC80 agonist-evoked calcium signal; AID 624415; in the data active means activity change below about -50%; inconclusive means about -30% to -50%; inactive means above about -30%;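 note: stimulus is agonist 54-4 at its EC80 concentration; % is set by controls: 0 for no effect and ±100 for the full control effect; compound concentration not given in the record; the text of the record puts the active cut at -80%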
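Tet-induced TRPML1-DL cells loaded with Ca8 no-wash calcium dye were read kinetically on FDSS. Compound addition was followed by EC80 agonist 54-4 (4 uM final); inhibition was read over 110 s.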
Sfp PPTase inh – inhibitors of Bacillus subtilis Sfp phosphopantetheinyl transferase; Q9F4F7; Biochemical Sfp PPTase activity, qHTS; Potency, µM, for inactives: max response, negative = inhibition, actives largely listed as inhibitors; hit rate 3.5% among 310,000; active = well fitted inhibition curve with a large enough effect; inconclusive = small, poorly fitted or top-dose-only effect, or another doubt; inactive = no such curve, though single readings can be large or run the other way;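 note: the enzyme is Sfp with the accession as filed and its product quenches rhodamine fluorescence; potency is the fitted concentration of half-maximal effect; 0% = enzyme reaction without inhibitor and -100% = no enzyme wells; top concentration of the series not given in the record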
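Compounds were incubated with enzyme (final 15 nM) for 15 min at room temperature before substrate addition started the reaction. Fluorescence at 525 nm excitation, 598 nm emission was recorded immediately and after 30 minutes.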
TRPV1 PAM – human TRPV1 potentiation; potentiation, % at 8.33 µM; TRPV1-expressing cells, Fluo-8 calcium influx, capsaicin EC20 potentiation; host cell line not named in the record; control for the full effect not named in the record; hit rate 0.02% among 320,000; Q8NER1; AID 540277; active means potentiation above 80%; inconclusive means 30% to 80%; inactive means below 30%; note: 0% is about no effect
Target sequence (Q8NER1 whole entry, looked up): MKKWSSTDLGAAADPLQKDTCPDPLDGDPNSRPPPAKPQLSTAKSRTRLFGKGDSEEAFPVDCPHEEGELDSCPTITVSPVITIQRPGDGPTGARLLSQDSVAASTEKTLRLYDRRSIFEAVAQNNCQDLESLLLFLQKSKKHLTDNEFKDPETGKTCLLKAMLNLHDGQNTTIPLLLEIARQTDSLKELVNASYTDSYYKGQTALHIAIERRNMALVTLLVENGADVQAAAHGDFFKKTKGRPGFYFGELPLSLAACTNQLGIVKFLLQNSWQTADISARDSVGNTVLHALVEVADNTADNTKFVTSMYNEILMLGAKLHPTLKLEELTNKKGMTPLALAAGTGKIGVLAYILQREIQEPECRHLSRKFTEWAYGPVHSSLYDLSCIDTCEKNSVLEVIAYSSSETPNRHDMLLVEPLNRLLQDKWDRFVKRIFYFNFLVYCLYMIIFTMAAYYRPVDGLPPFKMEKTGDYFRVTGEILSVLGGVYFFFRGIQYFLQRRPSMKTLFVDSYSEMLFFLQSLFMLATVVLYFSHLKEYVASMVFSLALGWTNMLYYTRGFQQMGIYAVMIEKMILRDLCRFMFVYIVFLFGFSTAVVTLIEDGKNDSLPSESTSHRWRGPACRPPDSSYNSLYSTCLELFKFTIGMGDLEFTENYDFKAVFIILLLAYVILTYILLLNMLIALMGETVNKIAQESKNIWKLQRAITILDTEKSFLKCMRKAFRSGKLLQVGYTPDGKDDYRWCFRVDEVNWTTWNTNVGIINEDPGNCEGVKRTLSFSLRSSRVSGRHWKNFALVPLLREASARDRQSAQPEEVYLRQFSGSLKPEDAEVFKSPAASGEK
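Fluo-8 calcium influx in TRPV1-expressing cells, kinetic read (ex 480/em 520 nm). Compound added and read 3 min for agonist activity, followed by capsaicin at EC20 final and 2 min further read for enhancement.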
ClpP mod – qHTS Assay for Activators of ClpP | AID 651965, 2013 | Potency, µM (titrated, usually from 57.5 µM), without a hit: top-dose activity change, negative = active | purified B. subtilis ClpP, FRET peptide cleavage, 20 min | hit rate 1.9% among 340,000; active = well fitted falling curve with a large enough effect; inconclusive = small, poorly fitted or top-dose-only effect; inactive = no such curve, though single readings can be large or run the other way; note: potency is the fitted concentration of half-maximal effect; the source files actives as falling curves though it sought activators and does not explain the sign; nearly all actives have a fitted effect of over 65% in size; many hits overshoot -100%
Target sequence (P80244 whole entry, looked up): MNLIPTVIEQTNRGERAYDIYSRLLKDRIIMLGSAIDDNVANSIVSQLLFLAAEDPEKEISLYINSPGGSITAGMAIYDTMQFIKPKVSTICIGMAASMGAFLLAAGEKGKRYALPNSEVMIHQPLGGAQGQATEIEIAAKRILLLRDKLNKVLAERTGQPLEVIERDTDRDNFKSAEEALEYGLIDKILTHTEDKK
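Purified B. subtilis ClpP, 10 microg/mL final in Tris/HCl pH8 with KCl, BSA, glycerol and Tween-20, cleaved an Abz/nitrotyrosine-quenched decapeptide. Fluorescence (ex 320, em 430) was read at 0 and 20 min at room temperature. Delta was normalized to 5.8 microM ADEP and DMSO/no-enzyme controls.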
An asterisk follows results filed as active; ? = inconclusive; / = no result given; & = joins results of further samples; [ ] = another dose, or the depositor's remark. Compounds were not picked by outcome; about 4.4% have a hit in one of these screens.

SMILES	PINK1 modulator	Menin MLL FP FL	TRPML1 ag	TRPML1 inh	Sfp PPTase inh	TRPV1 PAM	ClpP mod
O=C(Cc1c[nH]c2ccccc12)NCc1cccs1	0.3%	-5.2	-0.6	-12.7	-0.2%	2.8	-0.7%
O=C(c1ccco1)N1CCN(S(=O)(=O)c2ccc3c(c2)OCCO3)CC1	0.4%	2.7	-0.9	11.1	16.5%	-32.3	0.9%
O=[N+]([O-])c1ccc(/C=N/Nc2ncc(Br)cn2)cc1	2.3%	0.8	-0.2	10.7	0.7%	12.5	-1.1%
C=CCSC1=C(C#N)C(c2cc(Br)c(O)c(OC)c2)CC(=O)N1 (centres undefined)	-1.3%[38.3 µM]	6.8	4.2	10.8	25.1µM*	1.4	0.5%
CCOc1cc(/C=N/N=C/c2ccc(O)c(OCC)c2)ccc1O	1.2%	3.2	-0.1	6.3	7.1%	19.6	2.0%
O=C(NCCN1Cc2ccccc2C1=O)c1cccs1	-0.6%	2.6	-0.5	3.7	3.3%	-3.4	-8.8%
O=[N+]([O-])c1ccccc1C=CC=NN=Cc1ccccc1O	15.5%	/	0.9	21.9	/	/	1.5%
COc1ccc(-n2nnnc2SCC(=O)Nc2ccccc2N2CCOCC2)cc1OC	1.9%	1.7	0.0	-2.7	-7.7%	-0.1	6.9%
Cc1cc(C)c[n+](CC(=O)c2c(C)cc(C)c([N+](=O)[O-])c2C)c1	-1.6%	0.3	0.1	-7.1	14.0%	-4.7	0.2%
Cc1cc(C)nc(N2CCC(C(=O)NCc3ccccc3F)CC2)n1	-0.2%	-1.2	-0.4	4.1	7.8%	-0.8	-12.7%
Cc1ccc(S(=O)(=O)N2[C@@H](c3ccc(C(C)(C)C)cc3)C(C(=O)O)=CC[C@H]2c2ccc(C(C)C)cc2)cc1	?	/	1.1	5.4	/	/	0.5%
CCOc1cc(C(=O)O/N=C(\N)c2ccc([N+](=O)[O-])cc2)cc(OCC)c1OCC	3.3%	-1.3	-0.7	-4.2	6.7%	-4.6	-0.2%
O=C(O)c1c(-n2cccc2)sc2c1CCCC2	-0.5%	?	-0.7	-13.7	6.3%	0.9	/
Cc1ccc(C2Nc3ccccc3C(=O)N2Cc2ccco2)cc1 (centres undefined)	2.0%	-2.2	0.1	54.5	-10.9%	-6.6	25.1µM*
O=[N+]([O-])c1cc(S(=O)(=O)NC2=NCCCCC2)ccc1Cl	3.6%	-3.6	-1.0	2.6	-0.1%	-4.0	/
O=C(COc1ccc([N+](=O)[O-])cc1)Nc1ccc2c(c1)CCC2	4.5%	/	-0.2	-1.3	/	-12.6	0.4%
C=CCc1cccc2cc(C(=O)N(C)C)c(=O)oc12	/	-1.4	-0.5	-16.9	7.0%	3.6	-23.2%
Cc1ccc(CCNC(=O)c2ccc3c(c2)N(Cc2cc(C)ccc2C)C(=O)c2ccccc2S3=O)cc1 (centres undefined)	-1.2%	/	-0.6	-15.2	/	/	-1.7%
COc1ccc(CCNC(=O)c2c(C)nn(-c3ccccc3)c2Cl)cc1OC	-2.0%	7.1	0.1	-5.9	5.5%	-10.1	/
Cc1cc(C(=O)N/N=C2\CC(=O)CC(C)(C)C2)c(C)n1-c1ccccc1	0.6%	3.4	0.0	-5.1	4.6%	0.5	-3.6%
Cc1cc(C)cc(N2CCCn3c2nc2c3c(=O)n(CC(=O)OCc3ccccc3)c(=O)n2C)c1	10.1%[38.3 µM]	1.3	1.5	11.6	13.4%	5.4	-5.0%
CN(C)c1ccc(O)c2c1CC1CC3[C@@H](N(C)C)C(=O)C(C(N)=O)=C(O)[C@]3(O)C(=O)C1=C2O (some centres undefined)	-0.1%	-4.6	-0.2	5.1	-11.7%	-2.6	-0.6%
Cc1onc(-c2c(F)cccc2Cl)c1C(=O)NCCO	1.5%	-1.2	0.2	5.1	1.5%	12.1	1.6%
O=c1[nH]c(=O)n([C@H]2C[C@H](O)[C@@H](CO)O2)cc1Br	1.0%	?	-0.2	0.4	15.2%&11.7%	-0.9	-0.8%
c1ccc(OCCNc2nc(NCC3CC3)nc3cc(-c4ccccc4)sc23)cc1	?	/	-0.4	/	/	/	25.1µM*
COc1ccc(/C=C/C(=O)NC(=S)N2CCN(c3ccccn3)CC2)cc1	-1.3%	2.0	4.8	11.4	14.9%	-0.9	-3.9%
Cc1nnc(SCCn2c(N(C)Cc3ccccc3)nc3c2c(=O)[nH]c(=O)n3C)s1	-1.0%	1.2	-0.3	-9.5	29.0%	-6.9	-3.1%
Cc1cc(NC(=O)CCc2ccc(C)o2)no1	2.4%	0.3	1.4	5.9	?	2.4	-3.1%
O=C(NCc1ccccc1F)C1CCCN(C(=O)NC2CCCCC2)C1 (centres undefined)	1.2%	3.8	-0.4	-5.9	5.7%	-26.9	-2.5%
CSc1ccccc1NC(=O)Cn1ccsc1=N	2.2%	1.6	0.6	-10.3	6.0%	-0.9	/
O=C(c1cn(-c2ccccc2)nc1-c1cccc(Br)c1)N1CCOCC1	-1.0%	-0.3	-0.7	-6.1	8.8%	-6.8	/
Cc1c(Cl)cccc1NC(=O)C1COc2ccccc2O1 (centres undefined)	0.7%	2.1	-0.1	1.6	18.5%	-3.1	-2.4%
Cc1ccc(OCCSCc2nc3ccccc3[nH]2)cc1	0.3%	-1.8	2.5	0.3	2.3%	/	-0.1%
COCc1ccc(CN2CCCCC2C(=O)Nc2ccc(Oc3ccccc3)nc2)o1 (centres undefined)	7.1%	/	0.3	8.1	6.4%	-11.1	-0.1%
CCN1CCN(C(c2ccccc2)c2nnnn2Cc2ccc3c(c2)OCO3)CC1 (centres undefined)	0.2%	-3.1	0.9	-2.6	5.8%	8.5	0.8%
Cc1cccc(-n2cc(-c3ccccc3)c3c(N4CCC(C)CC4)ncnc32)c1	4.8%	/	0.6	-7.5	/	/	28.2µM*
CC1(CCc2ccccc2)NC(=O)N(CC(=O)Nc2ccc(S(N)(=O)=O)cc2)C1=O (centres undefined)	1.0%	-1.4	0.1	6.1	5.9%	7.6	/
OC(CNCc1ccncc1)c1ccccc1 (centres undefined)	5.2%	-1.1	-0.7	1.8	15.3%	11.1	-0.4%
N#Cc1ccc(NC(=O)CSc2n[nH]c(=O)n2C2CC2)cc1	-0.2%	/	2.4	24.8	/	-4.4	0.3%
COc1ccccc1CNCC(=O)Nc1cc(S(=O)(=O)N2CCOCC2)ccc1Cl	2.1%	/	-0.6	-12.3	/	5.5	1.7%
O=C(/C=C/c1ccccc1)NC1CCSC1=O (centres undefined)	2.9%	6.6	0.3	26.8	3.0%	-1.2	1.1%
CS(=O)(=O)Nn1cnc2ccccc2c1=O	-2.8%	-0.7	0.5	-10.9	14.4%	1.5	-2.1%
COc1ccc2nc(C)cc(N3CCOCC3)c2c1	-2.0%[38.3 µM]	-0.5	0.2	10.1	-0.3%	/	-1.1%
Fc1ccc(Oc2nnnn2-c2ccccc2)cc1	1.2%	0.7	-0.5	-10.5	11.3%	9.7	/
Clc1ccc(COn2c(-c3ccc(Cl)cc3)nc3ccccc32)cc1	29.4%[38.3 µM]	1.1	1.1	73.5	-34.5%	-5.5	1.4%
CC(=O)C1C(c2ccc(Br)cc2)c2c(noc2C)CC1(C)O (centres undefined)	-0.5%	-1.7	1.0	23.5	7.4%	-9.6	/
O=C(c1ccco1)N1CCN(C(=S)NCc2ccc(F)cc2)CC1	0.6%	-1.2	0.5	3.2	13.4%	3.0	0.9%
CCOC(=O)c1sc(NC(=O)CCN2CCOCC2)c(C(=O)OCC)c1C	3.6%	1.3	0.3	-0.1	12.3%	-10.6	-11.1%
COc1ccc2ccc(Oc3ncccn3)cc2c1	0.2%	0.2	-0.1	12.2	5.1%	-0.4	-0.4%
CNC(=O)C1CCN(C(=O)N2CC(C)Oc3ccc(Cl)cc32)CC1 (centres undefined)	-0.6%	/	-1.2	-10.9	/	/	-0.7%

Other compounds:
SMILES	PINK1 modulator	Menin MLL FP FL	TRPML1 ag	TRPML1 inh	Sfp PPTase inh	TRPV1 PAM	ClpP mod
CC1CCCCN1S(=O)(=O)c1cccc2cccnc12 (centres undefined)	2.2%	10.3	-0.5	1.5	6.4%	/	-0.7%
O=C(NCc1ccc(F)cc1)c1c(O)c2cccc3c2n(c1=O)CCC3	0.2%	-0.3	-0.8	2.8	10.2%	-0.5	-3.3%
Cc1ccc2c(c1)cc(CN(Cc1cccnc1)C(=O)c1ccccc1)c1nnnn12	-1.9%	0.2	-0.8	8.7	5.0%	0.7	-1.6%
c1coc(CNc2ncnc3c2[nH]c2ccccc23)c1	1.6%	/	-0.6	/	/	/	4.8%
CCC(CC)C(=O)Nc1ccc(C(=O)Nc2cc(C)on2)cc1	0.6%	-4.7	0.0	-2.1	17.1%	-4.7	/
O=C(CSc1nc2cc(Cl)ccc2s1)c1ccco1	?	?	2.0	8.8	-2.8%	-5.5	0.3%
COc1ccc(CNc2ncnc3c2cnn3-c2ccc(Cl)cc2)cc1	2.1%	/	0.9	-10.3	/	/	-1.9%
FC(F)(F)c1cccc(CNC2c3ccccc3-c3ccccc32)c1	11.8%	-6.7	0.9	15.0	?	-22.6	-2.0%
CCCC(=O)C1=C(O)C(C(=O)OC)C(C)(C)CC1=Nc1ccc(N)cc1 (centres undefined)	-12.0%[38.3 µM]	-0.4	-0.7	-1.9	21.1%	-1.5	-0.1%
Cc1ccc(NC(=O)CS(=O)CC(=O)N2CCN(C3CCCC3)CC2)cc1 (centres undefined)	0.2%	8.8	-0.4	-20.2	-3.2%	15.8	/
CCCc1ccc(Oc2cc(NN3CCCCC3)c([N+](=O)[O-])cc2[N+](=O)[O-])cc1	0.9%	0.4	-0.6	2.5	10.0%	?	-5.4%
CC(C)(C)C(=O)Cn1c(=O)n(-c2ccc(F)cc2F)c(=O)c2sccc21	0.8%	-1.5	-0.6	6.2	5.4%	-16.0	3.6%
Nc1ccccc1Nc1cc(-c2ccccc2)nn1-c1cccc(Cl)c1	23.6%	1.7	-0.8	-3.6	13.5%	2.3	0.6%
COc1ccc(S(=O)(=O)N2CCN(C)CC2)cc1	-0.2%	-4.2	0.3	7.4	15.8%	-1.7	0.6%
COc1ccccc1CNc1ncnc2c1c(-c1ccccc1)cn2-c1cccc(C)c1	3.8%	/	1.6	42.3	/	/	28.2µM*
